Six1-Eya2 inh: qHTS Assay for Inhibitors of the Six1/Eya2 Interaction. AlphaScreen GST-Six1/His-Eya2 binding, biochemical; active compounds read low; control for the full effect not named in the record. activity change, % (concentration not given with the values). Homeobox protein SIX1 (Homo sapiens) + Protein phosphatase EYA2 (Homo sapiens), …. 360,000 compounds, 0.56% hits; in the data active = activity change below about -65%; inconclusive = about -30% to -65%; inactive = above about -30%; note: % is set by controls: 0 for no effect and ±100 for the full control effect
Target sequence (O00167 whole entry, looked up): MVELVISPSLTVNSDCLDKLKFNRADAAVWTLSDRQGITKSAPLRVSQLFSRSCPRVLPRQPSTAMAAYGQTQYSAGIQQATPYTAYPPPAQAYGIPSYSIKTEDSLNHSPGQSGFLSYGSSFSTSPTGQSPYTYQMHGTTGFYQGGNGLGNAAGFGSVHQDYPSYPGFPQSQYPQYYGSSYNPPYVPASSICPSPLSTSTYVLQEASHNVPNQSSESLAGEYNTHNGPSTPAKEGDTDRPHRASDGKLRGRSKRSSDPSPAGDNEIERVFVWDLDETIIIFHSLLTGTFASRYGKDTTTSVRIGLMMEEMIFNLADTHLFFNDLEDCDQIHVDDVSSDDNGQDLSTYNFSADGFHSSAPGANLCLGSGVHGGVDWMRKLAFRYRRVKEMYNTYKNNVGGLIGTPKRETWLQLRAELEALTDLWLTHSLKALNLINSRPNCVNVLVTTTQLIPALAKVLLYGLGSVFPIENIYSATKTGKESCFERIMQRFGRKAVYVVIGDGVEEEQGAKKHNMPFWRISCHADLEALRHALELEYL
Target sequence (Q15475 whole entry, looked up): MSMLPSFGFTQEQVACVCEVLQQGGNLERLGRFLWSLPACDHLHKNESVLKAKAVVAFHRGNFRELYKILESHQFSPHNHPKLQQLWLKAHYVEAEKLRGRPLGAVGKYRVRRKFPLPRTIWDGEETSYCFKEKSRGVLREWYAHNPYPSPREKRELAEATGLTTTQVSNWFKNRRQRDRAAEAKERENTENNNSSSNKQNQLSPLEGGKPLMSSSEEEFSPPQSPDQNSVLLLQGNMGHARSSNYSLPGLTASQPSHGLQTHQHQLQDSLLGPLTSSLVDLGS
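Six1/Eya2 binding was read as AlphaScreen signal after compounds were pinned into GST-Six1 plus His-tagged Eya2 (5X stock 250/500 nM) in pH 8.0 Tris/NaCl/TCEP buffer, beads added, then incubated 1 h, 37 C, dark.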
D2 PAM: Beta-Arrestin HTS for Positive Allosteric Modulators of the Human D2 Dopamine Receptor: Potentiators | D(2) dopamine receptor (Homo sapiens), P14416 | 360,000 compounds, 0.23% hits | potentiation, % (concentration not given with the values) | DiscoveRx D2 beta-arrestin cells, luminescence, 90 min; 100% = 57 uM dopamine signal; active = potentiation of 50% or more; inconclusive = 30% to 50%; inactive = 30% or less;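 note: tested on top of an EC20 dose of dopamine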
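PathHunter D2 cells, attached overnight at 37 deg C, received compound in DMSO plus dopamine at EC20 (50 nM final) for 90 min at 37 deg C. Beta-arrestin recruitment was read as luminescence after 1 h with detection reagent at ambient temperature.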
CtBP-E1A blk: qHTS Assay for Inhibitors of the CtBP/E1A Interaction. AlphaScreen GST-E1A/His-CtBP binding, 1536-well; active compounds read low; control for the full effect not named in the record. 340,000 compounds, 0.49% hits. activity change, % (no concentration beside the values). CtBP / adenovirus E1A interaction (AlphaScreen); in the data active means activity change below about -65%; inconclusive means about -30% to -65%; inactive means above about -30%; note: % is set by controls: 0 for no effect and ±100 for the full control effect
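GST-E1A and His-tagged CtBP (125 nM each as 5X stock) were preincubated with pin-transferred compound for 2 h at 37 °C in the dark, then glutathione donor and nickel acceptor beads were added for 1 h before AlphaScreen reading.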
PINK1 modulator: A Quantitative High throughput Screen to Identify Chemical Modulators of PINK1 Expression; PINK1 immunofluorescence, high-content cytometry, 24 h; Potency, µM (doses to about 76.6 µM), for inactives: at the highest dose activation (PINK1 increase), actives largely listed as activators; 410,000 compounds, 0.2% hits; AID 624263, 2012; active = well fitted activation curve with a large enough effect; inconclusive = small, poorly fitted or top-dose-only effect; inactive = flat fitted curve, though single readings scatter; cell line not stated here;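 note: potency is the fitted concentration of half-maximal effect; % of control where 0% means no effect; nearly all actives have a fitted effect of over 65% in size; a mitochondrial uncoupler was the plate control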
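Stable cell line, 250 cells/well, 12 h attachment; compounds pinned at 5 concentrations, 24 h; CCCP control. Fixed with nuclear dye, primary antibodies 12 h at 10 degrees C, secondary plus cell stain; laser-scanning cytometer read.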
TRPML1 ag: qHTS for Agonists of the Human Mucolipin Transient Receptor Potential 1 (TRPML1); Mucolipin-1 (Homo sapiens), Q9GZU1; TRPML1-expressing cells, Ca2+ dye fluorescence, FDSS; host cell line not named in the record; reference of the full effect not given here; activation, % (no concentration beside the values); 410,000 compounds, 0.12% hits; AID 624414, 2012; in the data active = activation above about 50%; inconclusive = about 30% to 50%; inactive = below about 30%; note: 0% is about no effect; the text of the record puts the active cut at 80%
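Tet-induced TRPML1-DL cells, 1,500 per well, cultured overnight, were loaded with a no-wash Ca2+ dye for 45–90 min. Calcium fluorescence was recorded on the FDSS for 110 s after compound addition, before the EC80 agonist (4 uM 54-4) was added.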
D2 ag: Beta-Arrestin HTS for Positive Allosteric Modulators of the Human D2 Dopamine Receptor: Agonists | D(2) dopamine receptor (Homo sapiens), P14416 | DiscoveRx PathHunter D2 beta-arrestin, luminescence, 90 min; 100% = 57 uM dopamine signal | activation, % (no concentration beside the values) | 360,000 compounds, 0.084% hits | AID 624465, 2012; in the data active = activation above about 40%; inconclusive = about 15% to 40%; inactive = below about 15%; note: compound concentration not given in the record; the text of the record calls up to 30% inactive
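DiscoveRx PathHunter D2 beta-arrestin cells (2,100/well) attached overnight, then compound-stimulated 90 min at 37 C in HBSS/10 mM HEPES/0.1% Tween-20 buffer; beta-galactosidase complementation read by luminescence after 1 h at ambient temperature. Dopamine 57 uM final (EC100) as control.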
* = called active by the depositor; ? = inconclusive; / = no result given; & = joins results of further samples; [ ] = dose if it differs, or a comment.

SMILES	Six1-Eya2 inh	D2 PAM	CtBP-E1A blk	PINK1 modulator	TRPML1 ag	D2 ag
COc1ccc(-c2[nH]nc3c2C2(C(=O)N(CC(=O)O)c4ccccc42)C(C#N)=C(N)O3)cc1OC (configuration not stated)	1.5	29.2	7.1	0.3%	-1.3	3.6
CC(C)C(=O)NCCc1nc2ccccc2n1CCc1ccccc1	20.4	4.4	0.0	-0.4%	0.1	-1.7
CC(=O)NC1=NN(C(C)=O)C(c2ccc(C)cc2)S1 (configuration not stated)	1.8	-13.0	-0.8	0.3%	-0.7	-4.0
Cc1ccc(SC[C@H](C)CN2CC[C@H](C)CCC2=O)cc1	-1.6	-33.6	-0.3	2.9%	0.3&-0.4	-0.3
Cc1cccc(N(C(=O)c2csnn2)C(C(=O)NC(C)(C)C)c2cccs2)c1 (configuration not stated)	6.7	-1.7	9.1	-4.5%[38.3 µM]	0.1	-2.4
O=C(CC1CCCCC1)NCc1ccccn1	1.4	-4.3	5.8	-3.5%	0.1	1.1
CC(C)Cn1cc(C(=O)N2CCOCC2)c2c3ccccc3n(C)c2c1=O	-0.8	-5.1	10.4	17.4%[38.3 µM]	1.5	-0.3
O=C(CSc1nncs1)NNC(=O)c1ccccc1Br	-1.9	0.9	4.1	-1.1%	-0.2	-2.0
Nc1ccc(OCC(O)C[n+]2ccc(CCS(=O)(=O)[O-])cc2)cc1 (configuration not stated)	9.8	1.1	/	0.0%	1.0	-0.3
COCCCn1cn[nH]c1=S	0.3	-6.9	8.3	-0.1%	3.2	1.2
C=CCc1c(C)nc(-c2ccccc2)nc1N/N=C/c1ccncc1	-4.5	-16.3	-10.4	1.1%	-0.1	4.7
CN1CCCCCC1=Nc1ccc([N+](=O)[O-])cc1	-12.0	-6.5	-8.2	-0.8%	0.0	-4.1
CCOc1ccccc1N(CC(=O)NCCc1ccccc1)C(=O)CCC(=O)Nc1ccccn1	-5.3	-0.9	0.8	2.1%	0.0	2.3
CCCc1cc(=O)oc2cc(C)cc(OC(C)C(=O)NCc3ccccn3)c12 (configuration not stated)	-0.1	-2.3	-3.3	-1.0%	-1.2	0.3
CCc1c(C)sc(NC(=O)c2cc(C3CC3)on2)c1C#N	1.2	-0.1	-11.7	4.4%	1.2	-5.4
Cc1cccc(NC(=O)C2C3C=CC(O3)C2C(=O)O)c1C (configuration not stated)	-4.0	-1.1	10.2	0.2%	-0.5	-2.4
COc1ccc(N2CCN(C(=O)C(=O)c3cn(CC(=O)N4CCCCCC4)c4ccccc34)CC2)cc1	-17.1	-9.2	-4.0	3.0%	-0.4	-1.3
CC(C)C(=O)Nc1cccc(-c2nc3ncccc3o2)c1	-25.3	-3.2	-27.2	0.5%	0.2	-7.0
COc1ccc(CCNC(=O)CSc2nc3cc(Cl)ccc3o2)cc1OC	-1.3	16.8	-0.3	1.7%	-0.5	1.2
COC(=O)c1ccc(NS(=O)(=O)c2ccc3[nH]c(=O)oc3c2)cc1	1.4	-4.7	-11.3	2.1%	-0.5	-3.0
O=C(NCC1CCCO1)C(=O)N/N=C/c1ccc(O)c(Cl)c1 (configuration not stated)	3.1	1.7	1.3	-2.0%	0.8	-2.1
O=C1[C@@H]2C(c3cccnc3)=NO[C@@H]2C(=O)N1c1ccc(Cl)cc1Cl	0.8	-19.0	/	0.6%	-0.4	-2.7
CC1(CSc2ccccc2)CC(=O)N1 (configuration not stated)	2.4	-2.6	-11.4	1.1%	0.2	-4.3
O=C(/C=C/c1ccc(OCCCF)cc1)N1CCN(Cc2ccccc2)CC1	-6.3	-19.1	-10.7	5.5%	2.4	-3.3
O=C(CSCc1cccc(Cl)c1)N/N=C/c1ccc(OCC(=O)N2CCCCC2)cc1	-5.8	-16.6	9.3	/	0.4	-0.2
COc1ccc(-n2nc(C(=O)NCC(=O)NCC3COc4ccccc4O3)c3ccccc3c2=O)cc1OC (configuration not stated)	0.0	21.1	2.4	4.8%	-0.3	-1.1
CCOc1ccccc1N1CCN(C(=O)C2=CC=CN3CCS(=O)(=O)N=C23)CC1	28.0	4.7	/	3.7%	-0.4	4.5
CCCCc1ccc(N/C(N)=N/c2nc(C)cc(C)n2)cc1	10.8	-4.2	0.0	1.6%	22.2	?
Cc1c(NC(=O)C(C)Sc2ccccc2)c(=O)n(-c2ccccc2)n1C (configuration not stated)	1.0	-4.8	5.0	0.1%	-1.0	-2.6
O=C(Nc1ccc(Nc2ccncc2)cc1)c1ccc([N+](=O)[O-])cc1	-6.0	-38.1	/	-0.2%	-0.1	14.9
COc1ccc(OC)c(C2/C(=C(\O)c3ccc(OC)c(Cl)c3)C(=O)C(=O)N2CCN(C)C)c1 (configuration not stated)	4.7	-16.9	6.5	-0.7%	0.5	-2.3
COc1cc(OC)cc(C(=O)NCCS(=O)(=O)N2CCN(Cc3ccccc3)CC2)c1	-9.3	-3.4	-5.4	1.5%	0.9	0.2
COc1ccc(NC(C)=O)cc1NC(=O)c1c(C)noc1C	2.6	-3.9	4.2	0.0%	0.1	4.3
O=C(/C=C/c1ccco1)Nc1ccccc1N1CCCC1	-3.2	-4.3	/	0.3%	1.8	-5.7
O=[N+]([O-])c1ccc(Oc2ccc(/C=N/O)cc2)nc1	-1.7	-2.1	2.2	1.2%	-0.6	0.6
Cc1ccc(CNC(=O)c2ccc3c(=O)[nH]c4c(C(=O)NCC5CCCO5)sc(=S)n4c3c2)cc1 (configuration not stated)	0.0	-26.9	1.2	0.4%	-0.1	-6.6

A different layout for part of the listing above.
Below each compound: Six1-Eya2 inh, D2 PAM, CtBP-E1A blk, PINK1 modulator, TRPML1 ag, D2 ag
CN1CCCCCC1=Nc1ccc([N+](=O)[O-])cc1
→ -12.0, -6.5, -8.2, -0.8%, 0.0, -4.1
CCOc1ccccc1N(CC(=O)NCCc1ccccc1)C(=O)CCC(=O)Nc1ccccn1
→ -5.3, -0.9, 0.8, 2.1%, 0.0, 2.3

Next part.
SMILES	Six1-Eya2 inh	D2 PAM	CtBP-E1A blk	PINK1 modulator	TRPML1 ag	D2 ag
O=C(Nc1ccccc1C(=O)N1CCOCC1)C1CCC(=O)N1C1CCCC1 (configuration not stated)	4.2	0.7	4.5	0.6%[38.3 µM]	2.8	-1.6
CC1CC2(C)CC(C)C1(COC(=O)Nc1ccccc1)CO2 (configuration not stated)	12.7	3.9	-14.9	0.5%	0.4	1.0
CCCCN1C2CCCC1CC(NC(=O)c1ccccc1Cl)C2 (configuration not stated)	0.4	-3.6	1.4	0.9%	0.1	-4.3
N/N=C(\Cc1cscn1)c1ccc(O)cc1O	-5.7	1.4	-4.7	-0.7%	1.1	0.4
Cc1cc(-c2ccc(Cl)s2)n[nH]1	-4.8	-3.2	-1.9	0.6%	0.2	-6.2
CCCCC(=O)N1C(C)CCC1C (configuration not stated)	-2.5	-2.6	3.1	0.0%	-0.5	-5.9
O=C(COC(=O)CCc1ccccc1)Nc1cc([N+](=O)[O-])ccc1F	5.3	-4.6	5.5	0.0%	0.1	-0.8
COc1ccccc1NC(=S)NNC(=O)c1nn(C)c(C)c1Cl	-28.9	-16.0	?	1.4%	0.9	-3.5
O=C(NNS(=O)(=O)c1ccc(F)cc1)c1sccc1-n1cccc1	-2.2	-6.7	/	1.2%	-0.8	4.6
CCn1c2ccccc2c2cc(NC(=O)CN3CCCC3)ccc21	1.9	1.0	-11.1	1.6%	1.8	2.3
Cc1cccc(C)c1NC(=O)CN1C(=O)C(C)Oc2ccccc21 (configuration not stated)	-6.7	-17.4	-16.5	-0.1%	0.7	1.2
COC(=O)c1ccccc1NC(=O)CCCn1nc(C)c2c(C)n(-c3ccccc3)nc2c1=O	7.8	-7.8	-1.2	-1.1%&0.1%	-1.0&0.6	3.6
O=C(NCc1ccco1)c1c(F)cccc1Cl	6.8	-9.8	13.0	0.7%	0.5	-1.7
O=C1NC(=S)S/C1=C\c1cc(Cl)ccc1Cl	-14.8	-10.4	1.3	?	0.1	-3.4
CC1(C)OC(=O)C(=CNc2ccccc2F)C(=O)O1	-7.5	10.8	-14.7	-2.1%	-1.1	0.8
CC1(C)CC(=O)N(CC(=O)NCc2ccc(F)cc2)c2ccccc2S1(=O)=O	3.2	-1.2	6.6	1.4%	-0.1	-2.8
CC(=O)NCC(=O)OCc1ccc([N+](=O)[O-])cc1	14.7	-0.7	-4.2	0.5%	0.0	-0.7
CCN(CC)S(=O)(=O)c1ccc(N2CCOCC2)c(NC(=O)c2c3c(nc4ccccc24)CCC3)c1	-1.7	16.0	-3.3	1.2%	1.4	-3.7
Cn1c(N2CCOCC2)nc2c1c(=O)n(Cc1ccc(Cl)cc1)c(=O)n2C	-8.6	-8.4	-2.8	21.0%[38.3 µM]	-0.7	-1.7
O=C(NCc1cccnc1)c1cccc(C(F)(F)F)c1	30.4	2.9	53.8	12.7%[38.3 µM]	-0.3	-2.9
CCCCNc1cc(C(=O)O)cc(S(N)(=O)=O)c1Oc1ccccc1	1.6	8.2	1.4	5.7%	-0.6	-2.3
Cc1ccccc1NC(=O)CCS(=O)(=O)c1ccc(Br)cc1	-4.9	-9.1	2.6	1.7%	3.0	-0.8
COc1cc(OC)cc(C(=O)NCCNC(=O)c2ccccc2)c1	-5.9	-7.1	-5.5	1.0%	0.0	-4.4
Clc1ccc(N=NN2CCOCC2)cc1	9.5	-5.1	1.5	0.7%	1.9	-1.7
Clc1ccc(CCNc2ncnc3c2nnn3Cc2ccccc2)cc1	-18.6	-4.5	-2.0	7.0%	-0.3	5.3
O=S(Cc1ccc(Br)cc1)Cc1nnc(SCc2ccc(Cl)cc2)n1-c1ccccc1 (configuration not stated)	-11.6	12.7	-20.4	4.7%	0.8	-2.7
O=C(c1cnccn1)N1CCN(C/C=C/c2ccccc2)CC1	1.1	-1.0	5.4	3.7%	-0.8	-1.3
Cc1cccc(C)c1NC(=O)c1ccc2c(c1)CCN2S(C)(=O)=O	8.8	-0.5	2.7	-0.1%	-0.7	0.3
CCOC(=O)c1c(NC(=O)C(=O)N/N=C/c2ccc(OCC)cc2)sc2c1CCCCC2	1.4	-2.9	-4.8	8.1%	-0.4	0.1
CCOC(=O)CNC(=O)CSc1nc2sc(C)c(C)c2c(=O)n1C	-1.6	5.8	-0.8	1.9%	0.4	-2.1

Complete entries as entered above. Order of values: Six1-Eya2 inh	D2 PAM	CtBP-E1A blk	PINK1 modulator	TRPML1 ag	D2 ag
Profile of `Cc1cccc(C)c1NC(=O)c1ccc2c(c1)CCN2S(C)(=O)=O` = 8.8	-0.5	2.7	-0.1%	-0.7	0.3
Profile of `CCOC(=O)c1c(NC(=O)C(=O)N/N=C/c2ccc(OCC)cc2)sc2c1CCCCC2` = 1.4	-2.9	-4.8	8.1%	-0.4	0.1
Profile of `O=C(c1cnccn1)N1CCN(C/C=C/c2ccccc2)CC1` = 1.1	-1.0	5.4	3.7%	-0.8	-1.3
